Autofluor counter – counter-screen for toxin protease inhibitors: compound fluorescence; compound autofluorescence counterscreen, microsphere flow cytometry; active compounds read high; fluorescence intensity (test concentration not listed); hit rate 3.1% among 360,000;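 active means at least 3 SD above the mean of all compounds, about 16000 in these data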;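 further: 100 nL of 1 mM stock went into each well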
An asterisk follows results filed as active. A portion of the library; the hit share may differ from the screen's.

SMILES	Autofluor counter
O=C1NC(Cc2ccccc2)c2nc3cc(F)ccc3c(=O)n2-c2cc3ccccc3cc21 (centres undefined)	3699
CC[C@H](NC(=O)/C=C/[C@H]1O[C@@H](n2cc(C)c(=O)[nH]c2=O)C[C@@H]1O)c1ccccc1	5472
CCNC(=O)C1(C)CCN(C(=O)c2ccc(F)c(Cl)c2)C1 (centres undefined)	3580
CCCS(=O)(=O)NC(=O)C1(C)CCCN(C(=O)c2ccccc2)C1 (centres undefined)	3028
Cc1cc(C)c(C(O)c2ncc(-c3ccccc3Cl)[nH]2)c(C)c1 (centres undefined)	3021
Cc1c(Cc2ccccc2)[n+](=O)c2ccccc2n1[O-]	4000
C[C@H]1CCCCO[C@H](CN(C)S(=O)(=O)c2cn(C)cn2)[C@@H](C)CN([C@@H](C)CO)C(=O)c2cc(NS(=O)(=O)c3ccccc3)ccc2O1	3459
O=C(NCCO)C(=O)NCC(c1cccs1)S(=O)(=O)c1ccc(F)cc1 (centres undefined)	3580
COC(=O)c1cnc(Nc2nc(C(N)Cc3ccccc3)cs2)nc1C(F)(F)F (centres undefined)	2891
CC(=O)c1ccc(OCc2nnn(CC(=O)O)c2-c2ccccc2)cc1	2971
CC1(C(=O)Nc2cccc3ccccc23)CCN1C(=O)Cc1ccccc1Cl (centres undefined)	3641
CCCNC(=O)C1(C)CCCN(C/C=C/c2ccccc2)C1 (centres undefined)	3630
CC(C)C[C@H]1CN(CCCC[C@H]2CNC(=O)C(=O)N2CCC2CCCCC2)C(=O)C(=O)N1CC1CCCCC1	5076
CCN1CCN(c2sc(S(=O)(=O)CC)nc2S(=O)(=O)c2ccc(C)cc2)CC1	3765
Cc1ccccc1S(=O)(=O)NC(=O)C1(C)CCN1C(=O)C1(c2ccc(Cl)cc2)CC1 (centres undefined)	4140
COC(=O)[C@]12CCCCC=C1N(Cc1ccccc1)C(=O)[C@H](CC(=O)N1CCSCC1)C2	4251
NC(=O)c1cccc(-c2ccnc3c2CC(C(=O)Nc2ccc(Cl)cc2)O3)c1 (centres undefined)	2856
CC(O)(c1ccccc1)c1nc(-c2cccc(C(F)(F)F)c2)cs1 (centres undefined)	3009
O=C(NCCNC(=O)c1ccc(Cl)cc1Cl)c1ccc(Cl)cc1Cl	6330
COc1cc(OC)nc(Nc2nc(C(C)N)cs2)n1 (centres undefined)	2866
CCc1cc2c(SCC(=O)NC3CCCC3)ncnc2s1	2901
Cc1ccccc1-c1cc2nc(Nc3ccc(F)cc3)n(C)c(=O)c2s1	4142
C=CCn1c(SCC(=O)Nc2cc(C)on2)nnc1-c1ccncc1	3997
COC[C@H](NS(=O)(=O)c1ccc(Br)cc1F)[C@@H](O)c1ccccc1	3755
OC(c1ccc2c(c1)OCO2)c1ncc(-c2ccc(Cl)cc2)[nH]1 (centres undefined)	3042
CC(C)N1CC2(CC(c3ccccc3F)=NO2)CN1C(=O)c1ccco1 (centres undefined)	3805
COc1ccc(S(=O)(=O)N2CCCCCC2)cc1NC(=O)Cc1cccc(C(F)(F)F)c1	3745
CC1=C(C(=O)N(C)C)CC(CC(=O)NCCCN(C)C)C(=O)N1Cc1ccc(C(C)(C)C)cc1 (centres undefined)	4248
Cn1nc(C(C)(C)C)cc1C(=O)N1CCC(C)(C(=O)NS(=O)(=O)C2CC2)C1 (centres undefined)	3194
Cc1nc(C)c(-c2csc(Nc3ccc(Cl)cn3)n2)s1	2753
CC(C)n1c(=O)c2ccccc2n1Cc1cn(-c2ccccc2)nn1	5446
Cc1noc(C)c1S(=O)(=O)N(C)C[C@H]1OCc2cn(nn2)CCCC(=O)N([C@@H](C)CO)C[C@@H]1C	3048
COc1ccc(CNC(=O)c2cccc3c(-c4cccnc4)coc23)cc1OC	3663
Cc1cnc(NS(=O)(=O)c2ccc(N)cc2)nc1-c1ccccc1O	3058
COCCN(Cc1ccc(OC)cc1)c1c(C)nc2ccc(C(=O)NCCc3c[nH]c4ccccc34)cn12	3029
COCCNC(=O)C1CCCN(C(=O)c2ccc3sccc3c2)CC1 (centres undefined)	3443
CC1(Cc2cccc(C(F)(F)F)c2)C(=O)Nc2ccc(-c3ccc(F)c(Cl)c3)cc21 (centres undefined)	4302
COc1ccc(NC(=O)C2(C)Cc3c(-c4ccc(N(C)C)cc4)ccnc3O2)cn1 (centres undefined)	2808
FC(F)(F)c1ccccc1Cc1c(-c2ccccc2)nc2ccc(Cl)cn12	4692
CCOC(=O)[C@]12CCC=C1N(Cc1ccccc1)C(=O)[C@H](CC(=O)NCCCN1CCCC1=O)C2	4205
Nc1nc(N)c2cc(CNc3ccc(Cl)c(Cl)c3)ccc2n1	3898
Cc1cc2cc3c(=O)[nH]c(=O)cc-3n(CC(O)C(O)C(O)CO)c2cc1C (centres undefined)	3959
NC(=NCc1ccccc1)NN=Cc1ccnc2ccccc12	7343
COc1ccccc1-c1noc2c1C(=O)NCC2	2912
C[C@H]1CN([C@@H](C)CO)C(=O)CCCn2cc(nn2)CO[C@@H]1CN(C)C(=O)c1ccc(N2CCN(C)CC2)cc1	5658
O=C(O)C1=CCC=CC1C(=O)O (centres undefined)	3066
O=C(NCc1cc(C(F)(F)F)ccc1Cl)c1cccc2c1C(=O)c1ccc(N3CCC(N4CCCCC4)CC3)cc1S2(=O)=O	8724
CC(C)C[C@H]1CNC(=S)N1C[C@H]1CCCN1C[C@H](CC(C)C)N1C[C@H](CC(C)C)N(CCc2ccccc2)C1=S	6074
O=C1c2ccccc2C(c2nnnn2-c2ccc3c(c2)OCCO3)N1CCc1c[nH]c2ccccc12 (centres undefined)	5759
Nc1[nH]c(C(=O)c2ccccc2)c(-c2ccc(Cl)cc2Cl)c1C(=O)c1ccc(Cl)c(Cl)c1	4510
Clc1cccc(-c2nc3ccc(Br)cn3c2Cc2ccccc2)c1	10779
Cc1ccc(F)c(S(=O)(=O)NC(=O)C2(C)CCN2C(=O)Cc2ccc(-c3ccccc3)cc2)c1 (centres undefined)	4290
Cc1cnc(C)c(Nc2nc(C(N)Cc3ccc(C(F)(F)F)cc3)cs2)n1 (centres undefined)	3968
O=C(Nc1ccc(Cl)cc1)c1cc(S(=O)(=O)N2CCCCC2)ccc1N1CCOCC1	3367
CCc1nc2ccc(C(=O)N3CCN(c4ccccc4)CC3)cn2c1N(C)CCCc1ccccc1	2952
COc1ccccc1CC(=O)Nc1cc(C)on1	3909
CC1=C(C(=O)N(C)C)CC(CC(=O)NCCCN(C)C)C(=O)N1Cc1ccc(F)cc1 (centres undefined)	5525
CCOC(=O)C1=C(COC(=O)c2cc([N+](=O)[O-])ccc2Cl)NC(=O)NC1C (centres undefined)	3813
Cc1ccc(S(=O)(=O)N2CC3(O)CN(C(=O)OC(C)C)N(C(=O)OC(C)C)CC3(OC(=O)NCc3ccccc3)C2)cc1 (centres undefined)	3595
COCCNC(=O)C1(C)CCCN(CCOc2ccc(Cl)cc2)C1 (centres undefined)	3487

Some of these compounds in order of length of the SMILES, lowest first:
SMILES	Autofluor counter
O=C(O)C1=CCC=CC1C(=O)O (centres undefined)	3066
COc1ccccc1CC(=O)Nc1cc(C)on1	3909
COc1ccccc1-c1noc2c1C(=O)NCC2	2912
NC(=NCc1ccccc1)NN=Cc1ccnc2ccccc12	7343
COCCNC(=O)C1(C)CCCN(CCOc2ccc(Cl)cc2)C1 (centres undefined)	3487
Clc1cccc(-c2nc3ccc(Br)cn3c2Cc2ccccc2)c1	10779
Cc1cnc(C)c(Nc2nc(C(N)Cc3ccc(C(F)(F)F)cc3)cs2)n1 (centres undefined)	3968
O=C(Nc1ccc(Cl)cc1)c1cc(S(=O)(=O)N2CCCCC2)ccc1N1CCOCC1	3367
CCOC(=O)C1=C(COC(=O)c2cc([N+](=O)[O-])ccc2Cl)NC(=O)NC1C (centres undefined)	3813
O=C1c2ccccc2C(c2nnnn2-c2ccc3c(c2)OCCO3)N1CCc1c[nH]c2ccccc12 (centres undefined)	5759
Cc1ccc(F)c(S(=O)(=O)NC(=O)C2(C)CCN2C(=O)Cc2ccc(-c3ccccc3)cc2)c1 (centres undefined)	4290
Nc1[nH]c(C(=O)c2ccccc2)c(-c2ccc(Cl)cc2Cl)c1C(=O)c1ccc(Cl)c(Cl)c1	4510
O=C(NCc1cc(C(F)(F)F)ccc1Cl)c1cccc2c1C(=O)c1ccc(N3CCC(N4CCCCC4)CC3)cc1S2(=O)=O	8724
C[C@H]1CN([C@@H](C)CO)C(=O)CCCn2cc(nn2)CO[C@@H]1CN(C)C(=O)c1ccc(N2CCN(C)CC2)cc1	5658
Cc1ccc(S(=O)(=O)N2CC3(O)CN(C(=O)OC(C)C)N(C(=O)OC(C)C)CC3(OC(=O)NCc3ccccc3)C2)cc1 (centres undefined)	3595

Next results.
SMILES	Autofluor counter
O=C(Nc1ccc(N2CCOCC2)cc1)c1csc([C@H]2C[C@H](O)[C@@H](CO)O2)n1	2901
C[C@H](CO)N1C[C@H](C)[C@@H](CN(C)S(=O)(=O)c2ccccc2)OCc2cnnn2CCCC1=O	3648
Cc1ccc(Nc2nc(C)cc(C)c2C#N)c(C)c1	4220
Cc1ccc(S(=O)(=O)N2C[C@H]3[C@H]4C(=O)N(Cc5ccccc5)C(=O)[C@H]4CC(=O)[C@H]3[C@@H]2c2cccc3ccccc23)cc1	5305
O=C(COC(=O)c1ccccc1Cl)NCc1cccs1	3640
Cc1cccc(OCC(=O)Nc2ccc(C(=O)Nc3ccccc3C(=O)O)cc2)c1	3032
CN(Cc1ccccc1)C(=O)c1ccc(Nc2nc(C(N)COCc3ccccc3)cs2)nc1 (centres undefined)	3829
CC(=O)c1ccc(NC(=O)c2cn(C)c(=O)c3ccccc23)cc1	3728
COc1cc2c(cc1OC)C1CCc3cc4c(cc3C1N=C2)OCO4 (centres undefined)	3638
CCOC(=O)N1CCN(C(=O)CCN2C(=O)/C(=C\c3ccc(OC)c(OC)c3)SC2=S)CC1	3707
COC(=O)c1ccc2nc(-c3ccc(F)cc3)c(Cc3cccc(F)c3)n2c1	6007
C[C@H]1CN([C@@H](C)CO)S(=O)(=O)c2ccc(-c3ccncc3)cc2O[C@H]1CN(C)C(=O)c1cccc(F)c1	3563
CCOc1ccc(Cl)cc1-c1cc(C(=O)NCc2ccccc2)[nH]n1	3247
COC(=O)c1cnc(NC(=O)C2(C)CCN2C(=O)C(C)C)s1 (centres undefined)	3398
CCOC(=O)C1(C)CCN1C(=O)c1ccccc1 (centres undefined)	3560
CC1(C2CC2)NC(=O)N(CC(=O)Nc2ccc(OC(F)F)cc2)C1=O (centres undefined)	3834
CN1CCN(C(=O)c2cccc(-c3cnc4cnc(-c5ccccc5Oc5ccccc5)cn34)c2)CC1	3799
CC1(C)CC(=O)C(CSC(=O)c2ccccc2)C(=O)C1	2921
CCc1nc2ccc(C(=O)N3CCN(S(=O)(=O)CC)CC3)cn2c1N(C)Cc1cccs1	3598
CC(NC(=O)C1CCCN1C(=O)c1cccs1)c1ccc(Cl)cc1Cl (centres undefined)	3674
CCc1nc2c(OCc3ccc(C#N)cc3)cccn2c1N(C)C(=O)c1ccc(C)cc1	2999
CC(C)(C)NC(=S)N1CCC2CC1c1c(Cl)cccc12 (centres undefined)	3249
O=S1(=O)CC(N2CCC(c3ccccc3)CC2)CN1Cc1ccc(F)cc1 (centres undefined)	4308
CC1(Cc2ccc(OC(F)(F)F)cc2)C(=O)Nc2c(Cl)ccc(Cl)c21 (centres undefined)	3454
COc1ccc(Oc2c(OC)cc(NCc3ccc(CN)cc3)c3ncccc23)cc1	4449
O=C(COC(=O)Cc1c(Cl)cccc1Cl)NCc1ccccc1	3804
Cc1cc(OCCCN2CCC(C(O)(c3ccccc3)c3ccccc3)CC2)ccc1Br	6019
O=C(O)c1ccccc1Cc1ccc(F)c2ccccc12	3457
OC(c1ccc(F)c(F)c1)c1nc(-c2cnc3ccccc3c2)cs1 (centres undefined)	4002
C[C@H]1CN([C@@H](C)CO)C(=O)CCCn2nncc2CO[C@@H]1CN(C)S(=O)(=O)c1ccccc1	3044
Cc1cccc(NC(=O)c2nc[nH]c2C(=O)NC[C@H](C)O)c1	2839
CCCNC(=O)C1(C)CCN(C(=O)COc2ccc(C(C)(C)C)cc2)C1 (centres undefined)	3064
COc1ccc(-c2nc3ccc(Br)cn3c2Cc2ccccc2C(F)(F)F)cc1OC	5942
CN(CCc1ccccc1)C(CCc1ccccc1)C(=O)Nc1ccc2c(c1)OCCO2 (centres undefined)	4023
CCc1nc2c(OCCc3cccc(OC)c3)cccn2c1N(C)C(=O)c1ccc(OC)cc1	4103
CC1(c2nnnn2-c2ccc3c(c2)OCCO3)CCC(=O)N1CCCN1CCOCC1 (centres undefined)	5295
COc1ccc(C2CCCCC2SCC(=O)O)cc1OC (centres undefined)	3785
CCCCn1nnnc1C(c1cccc2ccccc12)N1CCC2(CC1)C(=O)NCN2c1ccccc1 (centres undefined)	4229
CC(CC(=O)Nc1ccc2c(c1)c(=O)n(C)n2-c1ccc2ccccc2c1)C(F)(F)F (centres undefined)	3656
CCN(CC)C(=O)C1=C(C)N(Cc2ccc(C(C)(C)C)cc2)C(=O)C(CC(=O)NCCCN(C)C)C1 (centres undefined)	3478
Cc1c(C(=O)N2CCN(Cc3nccn3C)CC2)oc2c(F)cccc12	3382
COCCCN1C(=O)C(CC(=O)NCc2cccc3ccccc23)CC(C(=O)N2CCCCCC2)=C1C (centres undefined)	6046
C[C@@H]1CN([C@H](C)CO)C(=O)CCCn2cc(nn2)CO[C@H]1CN(C)C(=O)Nc1ccc2c(c1)OCO2	3425
Cc1ccccc1S(=O)(=O)N1C[C@H]2[C@H]3C(=O)N(c4ccccc4)C(=O)[C@H]3CC(=O)[C@H]2[C@@H]1c1ccc(Cl)cc1	5339
Cc1ccc2ccccc2c1NC(=O)CNCc1ccccc1	3924
Cc1cc(C)nc(NS(=O)(=O)c2ccc(NC(=O)c3ccccc3Br)cc2)n1	3810
COc1ccc(NC(=O)N(C)C[C@H]2OCCCC[C@@H](C)Oc3ccc(N(C)C)cc3C(=O)N([C@H](C)CO)C[C@@H]2C)cc1	3921
CC(C)COC(=O)N(C)C[C@H]1OCc2cnnn2CCCC(=O)N([C@H](C)CO)C[C@@H]1C	3495
CC(C)CN(C(=O)CSc1nnc(-c2cccs2)n1C1CC1)C1CCS(=O)(=O)C1 (centres undefined)	3953
CCCS(=O)(=O)NC(=O)C1(C)CCCN(C(=O)COCc2ccccc2)C1 (centres undefined)	3747
Cc1ccc2cc(CNC[C@H]3O[C@@H](n4cc(C)c(=O)[nH]c4=O)C[C@@H]3O)c(N3CCOCC3)nc2c1	3443

Assay outcomes deposited in PubChem BioAssay by NMMLSC.
